Hedgehog inh = Sonic Hedgehog pathway inhibition. Shh-LIGHT2 Gli-luciferase reporter, 30 h. inhibition, % (no concentration beside the values). actives 2.1% (n = 22,000). AID 2313;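 active means replicate mean of 65% or more; inconclusive means mean lower but half the replicates past it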;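 further: pathway switched on by Shh-conditioned medium diluted 1 in 25 in low serum; 100 nL library stock added to about 40 µL; 0% = median of neutral wells and 100% = positive control level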
PD-1 reversal = reversal of PD-1 mediated T-cell inhibition; 29,000 tested, under 10 active; primary human CD4 T cells, PD-L1 beads, CellTiter-Glo 96 h; activation, % (no concentration beside the values);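 active means replicate mean of 50% or more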;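 further: 0% = median vehicle wells and 100% = positive control; 100 nL library stock added to about 50 µL; numbers are from one replicate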
MITF inhib = inhibitors of MITF. actives 0.28% (n = 37,000). inhibition, % (test concentration not listed). TRPM1 promoter luciferase, luminescence, 24 h;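 active means most replicates at 85% or more, or half of them and the mean; inconclusive means half reach 85% but not the mean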;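 further: human melanocyte line stably carrying TRPM1 promoter luciferase reporter; 0% = vehicle wells and 100% = a positive control; the first replicate is given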
YB-1 expr inh = YB-1 expression inhibition; U2OS, qRT-PCR YB-1 vs CDIP delta delta Cp, 16 h; active compounds read high; zero = DMSO, each unit about twofold; delta delta Cp (YB-1 minus CDIP) (no concentration beside the values); actives 0.37% (n = 30,000);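 active means delta delta Cp rounded down to an integer at or above 3, about 3 SD of DMSO wells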;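 further: higher means less YB-1 transcript or more CDIP transcript relative to DMSO; stock transfer was 100 nL into about 100 µL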
The depositor's hits bear a star; ? = inconclusive; . = not tested or not shown. Not all compounds are listed, so the mix of outcomes need not match the whole.

SMILES	Hedgehog inh	PD-1 reversal	MITF inhib	YB-1 expr inh
C[C@H]1CN([C@@H](C)CO)C(=O)c2cc(NC(=O)Nc3ccc(C(F)(F)F)cc3)ccc2O[C@H]1CN(C)Cc1ccc2c(c1)OCO2	.	-1.6	-5	0.45
CCN(CC)CCCCCCCCOC(=O)c1cc(OC)c(OC)c(OC)c1	?	.	-7	-0.33
Cn1cc(C(c2ccc([N+](=O)[O-])o2)c2cn(C)c3ccccc23)c2ccccc21	.	-3.7	5	.
C[C@H]1CN([C@@H](C)CO)C(=O)c2cc(NC(=O)C3CCCCC3)ccc2O[C@@H]1CN(C)Cc1ccc(Oc2ccccc2)cc1	.	-4.9	14	0.13
C[C@H](CO)N1C[C@H](C)[C@H](CN(C)Cc2ccc(-c3ccccc3)cc2)Oc2ccc(NC(=O)Nc3ccc(F)cc3)cc2CC1=O	-3	.	11	-0.47
COc1ccc(N2C(=O)CC(SCC(=O)Nc3c(C)cccc3C)C2=O)cc1 (stereo not drawn)	.	-0.6	-1	.
Cc1ccc(C(=O)CCC(=O)Nc2cccnc2)cc1C	.	-0.8	-16	.
C[C@H]1CN([C@@H](C)CO)C(=O)Cc2cc(NS(=O)(=O)c3ccc(F)cc3)ccc2O[C@H]1CN(C)C(=O)Nc1ccc2c(c1)OCO2	.	0.1	-3	-0.33
O=C(O)c1cccc(S(=O)(=O)Nc2ccc(O)cc2Sc2nc3ccccc3s2)c1	.	1.7	7	.
CNC[C@H]1Oc2ccc(NC(=O)Nc3ccc(C(F)(F)F)cc3)cc2C(=O)N([C@@H](C)CO)C[C@H]1C	11	1.2	4	0.021
CCn1c(SCC(=O)N2CCCc3ccccc32)nnc1-c1cccs1	.	1.5	5	.
C[C@@H]1CN([C@H](C)CO)C(=O)c2cc(NC(=O)c3ccncc3)ccc2O[C@H]1CN(C)Cc1ccc2c(c1)OCO2	.	1.2	-13	0.48
CC1=C(CO)C(=O)OC([C@@H](C)C2CC[C@H]3C4C[C@H]5O[C@]56[C@@H](O)C=CC(=O)[C@]6(C)C4CC[C@]23C)C1 (stereo partly drawn)	?	-13	90*	0.67
CN(C)c1ccc(C(O)C(=O)c2ccccc2)cc1 (stereo not drawn)	.	0.1	2	0.35
C[C@@H]1CN([C@H](C)CO)C(=O)Cc2cc(NC(=O)Cn3cnnn3)ccc2O[C@H]1CN(C)C(=O)Nc1cccc2ccccc12	.	0.6	-5	0.012
O=C(N1CCCc2ccccc21)C(F)(F)F	20	0.1	-32	-0.26
Cn1c(SCC(=O)Nc2ccccc2)nc2sc3c(c2c1=O)CCC3	.	-2.1	40	.
O=S(=O)(Nc1ncccn1)c1ccc(NS(=O)(=O)c2cc(Cl)ccc2Cl)cc1	.	1.2	-1	.
COc1ccc(OC)c(S(=O)(=O)N(C)CC(=O)N2CCCC2)c1	.	2.0	-16	.
N/C(Cc1nc(-c2ccc(Cl)cc2)cs1)=N\O	-1	2.0	13	-0.2
C[C@H]1CN([C@@H](C)CO)C(=O)Cc2cc(NC(=O)Nc3cccc4ccccc34)ccc2O[C@@H]1CN(C)S(=O)(=O)c1ccc(Cl)cc1	.	-0.4	43	-0.015
CCOC(=O)c1sc(NC(=O)CSc2nc(C)cc(C(F)(F)F)n2)c(C#N)c1C	.	-2.8	6	.
C[C@@H]1CN([C@H](C)CO)C(=O)c2cc(NC(=O)CCCN(C)C)ccc2O[C@H]1CN(C)C(=O)Nc1ccc2c(c1)OCO2	6	0.8	-4	-0.047
C[C@H]1CN([C@@H](C)CO)C(=O)c2cccc(NC(=O)NC3CCCCC3)c2O[C@H]1CN(C)Cc1ccc(Cl)c(Cl)c1	-33	-2.3	41	-0.14
C[C@H]1CN([C@@H](C)CO)C(=O)Cc2cc(NC(=O)Nc3ccc4c(c3)OCO4)ccc2O[C@H]1CN(C)Cc1ccc(Cl)c(Cl)c1	.	2.1	11	-0.62
CN(C)CC#CC1(O)CCCCC1	-21	0.1	-18	0.072
O=[N+]([O-])c1cccc(S(=O)(=O)NCCOc2cccc(Cl)c2Cl)c1	.	-1.3	-13	.
Cc1ccc(-c2nn(CC(=O)Nc3ccc(C)cc3C)c(=O)c3ccccc23)cc1	.	-3.0	12	.
C[C@H](CO)N1C[C@H](C)[C@H](CN(C)Cc2ccc(-c3ccccc3)cc2)Oc2c(NC(=O)C3CCCCC3)cccc2C1=O	0	-2.2	0	-0.083
Cc1noc(C)c1NC(=O)Nc1cccc2c1O[C@@H](CN(C)S(=O)(=O)c1ccccc1)[C@@H](C)CN([C@H](C)CO)C2=O	-18	1.0	5	-0.093

Reformatted: results already given.
C[C@H]1CN([C@@H](C)CO)C(=O)Cc2cc(NC(=O)Nc3cccc4ccccc34)ccc2O[C@@H]1CN(C)S(=O)(=O)c1ccc(Cl)cc1
  Hedgehog inh = . | PD-1 reversal = -0.4 | MITF inhib = 43 | YB-1 expr inh = -0.015

Cc1noc(C)c1NC(=O)Nc1cccc2c1O[C@@H](CN(C)S(=O)(=O)c1ccccc1)[C@@H](C)CN([C@H](C)CO)C2=O
  Hedgehog inh = -18 | PD-1 reversal = 1.0 | MITF inhib = 5 | YB-1 expr inh = -0.093

C[C@H](CO)N1C[C@H](C)[C@H](CN(C)Cc2ccc(-c3ccccc3)cc2)Oc2c(NC(=O)C3CCCCC3)cccc2C1=O
  Hedgehog inh = 0 | PD-1 reversal = -2.2 | MITF inhib = 0 | YB-1 expr inh = -0.083

C[C@H]1CN([C@@H](C)CO)C(=O)c2cccc(NC(=O)NC3CCCCC3)c2O[C@H]1CN(C)Cc1ccc(Cl)c(Cl)c1
  Hedgehog inh = -33 | PD-1 reversal = -2.3 | MITF inhib = 41 | YB-1 expr inh = -0.14

Later entries:
SMILES	Hedgehog inh	PD-1 reversal	MITF inhib	YB-1 expr inh
C[C@H](CO)N1C[C@H](C)[C@H](CN(C)C(=O)Nc2ccc(F)cc2)Oc2c(NC(=O)C3CC3)cccc2C1=O	-2	0.9	-6	0.066
CC1=CCC(C(C)(C)O[C@@H]2O[C@H](COC(=O)c3cc(O)c(O)c(O)c3)[C@@H](O)[C@H](O)[C@H]2O)CC1 (stereo partly drawn)	-29	.	.	0.13
Cc1ccc(S(=O)(=O)Nc2cccc3c2O[C@@H](CN(C)C(=O)NC(C)C)[C@@H](C)CN([C@H](C)CO)C3=O)cc1	-17	-0.8	-1	-0.79
C[C@@H]1CN([C@@H](C)CO)C(=O)c2cccc(NS(C)(=O)=O)c2O[C@H]1CN(C)C(=O)Nc1ccc(F)cc1	17	4.1	-8	0.39
Cc1ccc(OCC(=O)Nc2ccccc2N2CCOCC2)cc1	.	-2.2	12	.
COc1ccc(S(=O)(=O)Nc2cccc3c2O[C@H](CN(C)C(=O)Nc2ccccc2)[C@H](C)CN([C@@H](C)CO)C3=O)cc1	-6	-2.9	11	-1.1
C[C@@H]1CN([C@H](C)CO)C(=O)c2cc(NC(=O)NC3CCCCC3)ccc2O[C@@H]1CN(C)C(=O)Nc1ccc2c(c1)OCO2	-2	-0.6	-12	-0.44
Cc1ccc(NC(=O)CSc2nncn2C)c(C)c1	.	2.0	-32	.
COc1cc(O)c2c(=O)c(OC3OC(CO[C@@H]4O[C@@H](C)[C@H](O)[C@@H](O[C@@H]5O[C@@H](C)[C@H](O)[C@@H](O)[C@H]5O)[C@H]4O)C(O)C(O)C3O)c(-c3ccc(O)cc3)oc2c1 (stereo partly drawn)	-20	0.1	-12	0.54
N#C/C(=C\c1ccc(O)c(O)c1)C(=O)c1ccc(O)c(O)c1	40	1.3	-3	-0.24

Some of the entries so far, in CSV form.
SMILES,Hedgehog inh,PD-1 reversal,MITF inhib,YB-1 expr inh
COc1cc(O)c2c(=O)c(OC3OC(CO[C@@H]4O[C@@H](C)[C@H](O)[C@@H](O[C@@H]5O[C@@H](C)[C@H](O)[C@@H](O)[C@H]5O)[C@H]4O)C(O)C(O)C3O)c(-c3ccc(O)cc3)oc2c1 (stereo partly drawn),-20,0.1,-12,0.54
C[C@@H]1CN([C@@H](C)CO)C(=O)c2cccc(NS(C)(=O)=O)c2O[C@H]1CN(C)C(=O)Nc1ccc(F)cc1,17,4.1,-8,0.39

Following part:
SMILES	Hedgehog inh	PD-1 reversal	MITF inhib	YB-1 expr inh
Cc1cc(Cl)cc(Br)c1OCCCNCC(C)O (stereo not drawn)	.	-8.9	-23	.
C[C@@H]1CN([C@@H](C)CO)C(=O)c2cc(NS(=O)(=O)c3ccc(F)cc3)ccc2O[C@@H]1CN(C)C(=O)Nc1ccccc1	.	-2.0	-11	1
Nc1nnc(SCc2cccnc2)s1	.	0.4	-7	.
C[C@@H]1CN([C@H](C)CO)C(=O)c2cccc(NC(=O)C3CCOCC3)c2O[C@H]1CN(C)C(=O)Nc1ccccc1	-9	1.0	-4	-0.22
C[C@@H]1CN([C@H](C)CO)C(=O)Cc2cc(NC(=O)C3CCCCC3)ccc2O[C@@H]1CN(C)Cc1ccc(C(=O)O)cc1	-18	0.8	-9	0.0067
Cn1nnc2cc(NC(=O)NCc3ccco3)ccc21	.	-1.0	-32	.
C[C@H](CO)N1C[C@H](C)[C@@H](CN(C)C(=O)Nc2ccc(C(F)(F)F)cc2)Oc2c(NC(=O)c3ccncc3)cccc2C1=O	-23	1.3	-4	0.85
C[C@H]1CN([C@@H](C)CO)C(=O)c2cc(NS(C)(=O)=O)ccc2O[C@@H]1CN(C)C(=O)Nc1ccc(C(F)(F)F)cc1	-6	0.3	2	0.006
CCSc1nc2ccccc2n1C(CC(=O)O)C(=O)O (stereo not drawn)	.	2.1	-8	.
C[C@@H]1CCCCO[C@@H](CN(C)Cc2ccc(C(=O)O)cc2)[C@@H](C)CN([C@H](C)CO)C(=O)c2cc(NS(=O)(=O)c3ccc(F)cc3)ccc2O1	3	1.7	3	0.15
C[C@@H]1CCCCO[C@@H](CN(C)Cc2ccc(C(=O)Nc3ccccc3N)cc2)[C@@H](C)CN([C@H](C)CO)C(=O)c2cc(NC(=O)CCC(F)(F)F)ccc2O1	.	-0.7	5	-0.22
CN1CCCC(CC2c3ccccc3Sc3ccccc32)C1 (stereo not drawn)	39	.	-6	-0.29
COc1ccc(S(=O)(=O)N(C)C[C@@H]2OCCCC[C@@H](C)Oc3ccc(NC(=O)CCC(F)(F)F)cc3C(=O)N([C@H](C)CO)C[C@@H]2C)cc1	7	.	10	0.31
CC1=C(C(=O)Nc2ccccc2)C(c2ccccc2)NC(=O)N1 (stereo not drawn)	.	1.4	3	-0.43
C[C@H]1CN([C@@H](C)CO)C(=O)c2cc(NC(=O)CCN3CCOCC3)ccc2O[C@@H]1CN(C)Cc1ccccc1	-18	-0.5	1	0.25
C[C@H](CO)N1C[C@H](C)[C@H](CN(C)S(=O)(=O)c2cn(C)cn2)Oc2ccc(NC(=O)C3CCCCC3)cc2C1=O	.	.	5	-0.43
COc1ccc(S(=O)(=O)N(C)C[C@@H]2Oc3ccc(NC(=O)Cc4ccccc4)cc3CC(=O)N([C@@H](C)CO)C[C@@H]2C)cc1	-13	-0.7	4	0.14
C[C@@H]1CN([C@@H](C)CO)C(=O)c2cc(NC(=O)CCC(F)(F)F)ccc2O[C@H]1CN(C)CC1CC1	8	-0.2	4	-0.19
CNC(=O)NC(=O)CSc1nnc(Cc2ccccc2)n1-c1ccc(Cl)cc1	9	0.0	-1	-0.034
C[C@@H]1CCCCO[C@@H](CN(C)C)[C@@H](C)CN([C@H](C)CO)C(=O)c2cc(NS(=O)(=O)c3cn(C)cn3)ccc2O1	-15	.	-8	0.26
CNC[C@@H]1Oc2ccc(NC(=O)CCN3CCOCC3)cc2C(=O)N([C@@H](C)CO)C[C@H]1C	.	.	4	-0.09
Cc1ccc(NC(=O)c2cccc(N(C)C)c2)cc1NC(=O)c1ccc(O)cc1	84*	.	-40	0.48
C[C@@H]1CN([C@@H](C)CO)C(=O)c2cccc(NS(=O)(=O)c3ccccc3)c2O[C@H]1CN(C)Cc1ccccc1	-7	0.9	-5	-0.18
C[C@@H]1CN([C@H](C)CO)C(=O)Cc2cc(NC(=O)Nc3cccc4ccccc34)ccc2O[C@@H]1CN(C)C(=O)Nc1ccc(C(F)(F)F)cc1	.	.	14	0.38
COc1ccc(NC(=O)Nc2cccc3c2O[C@@H](CN(C)Cc2ccccc2)[C@H](C)CN([C@@H](C)CO)C3=O)cc1	11	-4.1	18	-0.033
NC(N)=NCCNS(=O)(=O)c1cccc2cnccc12	31	1.1	-5	0.13
C[C@@H]1CCCCO[C@@H](CN(C)S(=O)(=O)c2ccc(F)cc2)[C@@H](C)CN([C@H](C)CO)C(=O)c2cc(NC(=O)Cc3ccccc3)ccc2O1	6	-1.9	7	-0.039
C[C@@H]1CN([C@H](C)CO)C(=O)Cc2cc(NC(=O)Nc3ccccc3)ccc2O[C@@H]1CN(C)C(=O)Nc1ccc2c(c1)OCO2	.	-0.7	6	0.076
CC1CC(=O)c2c(ccc3c2C(=O)c2c(O[C@@H]4O[C@@H](C)[C@H](O)[C@@H](O)[C@H]4O)cccc2C3=O)C1 (stereo partly drawn)	3	0.9	10	-0.46
C[C@H]1CN([C@@H](C)CO)C(=O)Cc2cc(NC(=O)Nc3ccc(C(F)(F)F)cc3)ccc2O[C@@H]1CN(C)S(=O)(=O)c1ccc(Cl)cc1	32	-0.9	32	-0.16
C=C(C)C(=O)O[C@H]1[C@H]2C(=C)C(=O)O[C@@H]2C[C@@H](C)[C@@H]2O[C@@H]2C(=O)[C@](C)(O)[C@@H]1OC(=O)C(=C)C	100*	-9.7	41	-0.54

Bioassay records as filed in PubChem.
